# MT1-MMP reporter = inhibitors of MT1-MMP promoter transcription, cell-based, luciferase reporter, luminescence (AID 618) | hit rate 0.62% among 87,000 | calls from a first round at 10 µM; hits with a dose series show EC50 in µM | MT1-MMP promoter luciferase reporter cells, luminescence;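 active means over half of the reporter light lost at 10 µM or EC50 under 50 µM; inactive means the rest and hits that failed the dose series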;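 further: actives suppress MT1-MMP promoter-driven transcription so potencies describe inhibitors; HT1080 fibrosarcoma cells; overnight exposure; toxic or luciferase-blocking compounds were not removed from the actives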
# Hsc70 = Hsc70 inhibitors, probe displacement, primary screen, biochemical, fluorescence polarization (AID 568) | Hsc70 fluorescence polarization, probe displacement; higher % means a stronger effect; strong numbers were not always called active | displacement, % at 20 µM; hits with a dose series show IC50 in µM | 83,000 tested, under 10 active;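 active means displacement above 50% without optical interference and an IC50 on retest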;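 further: ATPase domain with a fluorescein-tagged ATP probe; 0% = vehicle and 100% = excess ADP; read after one hour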
# WNV protease inh = inhibitors of WNV NS2B-NS3 protease, primary screen, biochemical, fluorogenic substrate; hit rate 0.18% among 65,000; z-score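 (tested at a level between 10 and 100 µM)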; fluorogenic substrate Ex360/Em465; active compounds read low; Genome polyprotein (West Nile virus), P06935; AID 577, 2007;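 active means z-score at -3 or under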;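 further: score is relative to mean and spread of the compound wells of a plate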
# Target sequence (P06935 1371-1501 limits assumed): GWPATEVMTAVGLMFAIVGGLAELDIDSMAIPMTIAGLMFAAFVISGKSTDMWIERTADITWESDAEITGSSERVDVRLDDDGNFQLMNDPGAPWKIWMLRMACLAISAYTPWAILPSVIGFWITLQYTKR
# Target sequence (P06935 1502-1679 limits assumed): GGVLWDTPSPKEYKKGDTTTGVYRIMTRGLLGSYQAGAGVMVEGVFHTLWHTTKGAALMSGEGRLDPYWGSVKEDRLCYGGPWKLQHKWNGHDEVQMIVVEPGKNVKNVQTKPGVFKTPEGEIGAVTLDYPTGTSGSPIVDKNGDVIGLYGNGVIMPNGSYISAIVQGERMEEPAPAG
# The depositor's hits bear a star; i = inactive; x = not tested or not shown.
# Start of the data: the first five entries as a preview:
SMILES,MT1-MMP reporter,Hsc70,WNV protease inh
Cc1ccc(Cl)cc1N1CCN(C(=O)C2(S(=O)(=O)c3ccc(Cl)cc3)CC2)CC1,i,-13%,x
CCOC(=O)C1=C(N)OC2=C(C(=O)CC(C)(C)C2)C1C1CCCCC1 (stereo not given),i,-1.6%,-0.11
O=C(NCCN1CCOCC1)c1cc(-c2ccc(F)cc2)on1,i,0.5%,0.43
CN(CCOc1ccccc1)c1ccc(S(=O)(=O)N2CCCCC2)cn1,i,-1.1%,x
CC(=O)Nc1ccc(S(=O)(=O)N(C)c2ccccc2)cc1,i,-0.6%,-0.55

# This part in full, previewed entries included:
SMILES,MT1-MMP reporter,Hsc70,WNV protease inh
Cc1ccc(Cl)cc1N1CCN(C(=O)C2(S(=O)(=O)c3ccc(Cl)cc3)CC2)CC1,i,-13%,x
CCOC(=O)C1=C(N)OC2=C(C(=O)CC(C)(C)C2)C1C1CCCCC1 (stereo not given),i,-1.6%,-0.11
O=C(NCCN1CCOCC1)c1cc(-c2ccc(F)cc2)on1,i,0.5%,0.43
CN(CCOc1ccccc1)c1ccc(S(=O)(=O)N2CCCCC2)cn1,i,-1.1%,x
CC(=O)Nc1ccc(S(=O)(=O)N(C)c2ccccc2)cc1,i,-0.6%,-0.55
CCN(CC)CCn1c(NCc2ccc(OC)cc2)nc2ccccc21,i,-2.0%,1.3
CCOC(=O)N1CCC(NC(=O)c2cnn3c(C(F)(F)F)cc(-c4cccc(OC)c4)nc23)CC1,i,-14%,1.1
COc1ccccc1-c1nnc2sc(C3CCCCC3)nn12,i,-8.8%,-1.2
O=C(Nc1ccc2c3c(cccc13)CC2)c1ccc(Br)o1,i,-0.3%,x
O=C(COC(=O)c1ccccc1C(=O)N1CCN(c2ccccc2)CC1)Nc1ccc(F)cc1,i,4.3%,x
Clc1ccc(-c2noc(CN3CCN(c4ccccc4)CC3)n2)cc1,i,4.1%,-1
CC(NC(=O)c1ccco1)C(c1cccs1)N1CCN(c2ccccc2)CC1 (stereo not given),i,-0.4%,-0.15
Cc1ccc(C(=O)NCCNS(=O)(=O)c2ccccc2)cc1,i,-2.6%,0.09
CCCNC(=O)N[C@@H](Cc1ccccc1)C(=O)OC,i,-4.9%,x
O=C1c2ccccc2C(Nc2cccnc2)N1Cc1ccc2c(c1)OCO2 (stereo not given),i,6.9%,0.23
O=C(NCc1ccc2c(c1)OCO2)C1CC(=O)N(C2CCCC2)C1 (stereo not given),i,5.7%,1.9
O=C(c1ccco1)N1CCN(c2ncnc3scc(-c4cccs4)c23)CC1,i,-1.4%,0.81
O=C(NCc1ccco1)c1cnn2c(C(F)(F)F)cc(-c3ccccc3)nc12,i,4.1%,-0.0017
O=C(/C=C/NNC(=O)c1cccc(Br)c1)c1ccccc1,i,-0.2%,x
COCCn1c(CNc2ccc(F)cc2)nnc1SCC(=O)Nc1ccc(OC)cc1OC,i,-0.3%,0.71
O=C(NCCc1ccccc1)c1ccc(=O)[nH]c1,i,3.6%,x
CC(C)c1ccc(C2NC(=O)NC3=C2CCc2ccccc23)cc1 (stereo not given),i,-5.1%,x
CC(C)(C)OC(=O)N1CCCC1C(=O)N1CCCC1C(=O)N1CCCC1C(=O)O (stereo not given),i,-3.7%,0.2
CC1(C)CC(=O)c2sc(NC(=O)Cc3cccs3)nc2C1,i,3.4%,x
COC(=O)c1oc2ccc(Br)cc2c1NC(C)=O,i,-2.5%,0.25
Cc1ccc(/C=C/C2=NN(Cc3ccc(Cl)c(Cl)c3)C(=O)CC2)cc1,i,2.5%,x
O=C(NCCNC(=O)c1ccc(Br)o1)c1ccc(Br)o1,i,1.6%,-0.42
COc1ccccc1NC(=O)C1=C(C)Nc2nc(-c3ccc(N(C)C)cc3)nn2C1c1ccncc1 (stereo not given),i,-2.3%,0.11
Cc1ccc(C)c(S(=O)(=O)N2CCN(CC(=O)NC(=O)NCc3ccccc3)CC2)c1,i,-0.1%,2.3
CCn1cc(C(=O)NCCCN2CCC(C)CC2)c(=O)c2cc(S(=O)(=O)N3CCCC3)ccc21,i,-3.7%,-0.95
Cc1ccc(S(=O)(=O)/C(C#N)=C/c2c(N3CC(C)OC(C)C3)nc3c(C)cccn3c2=O)cc1 (stereo not given),i,-3.9%,x
Nc1nc(-c2cccs2)c(NC(=O)c2ccccc2)s1,i,0.9%,-0.99
CCC(C)N1C(=O)C2C(C(=O)Nc3cccc(OC)c3)C3C=CC2(O3)C1C(=O)NC1CCCCC1C (stereo not given),i,-7.4%,-0.6
COc1ccccc1NC(=O)CSc1nc2n[nH]c(C)c2c(=N)n1-c1ccccc1Cl,i,6.0%,x
CC(=O)N1CCCc2cc(S(=O)(=O)NC(C(=O)NC(C)c3ccccc3)C(C)C)ccc21 (stereo not given),i,3.6%,1.2
Cc1occc1C(=O)NCc1ccc(C(=O)O)o1,i,-3.1%,x
Cc1ccc2oc3c(c(=O)c2c1)C(c1cccc(Br)c1)N(Cc1ccco1)C3=O (stereo not given),i,3.2%,0.61
CCc1nn(CC(=O)O)c(=O)c2ccccc12,i,-3.8%,-0.88
OC1CCN(c2ncnc3c2nnn3Cc2c(F)cccc2Cl)CC1,i,-3.8%,-1.5
Clc1cccc(-c2nnc(SC/C=C/c3ccccc3)n2Cc2ccco2)c1,i,-2.7%,x
c1ccc(-c2nnc3sc(-c4csc5c4CCCC5)nn23)cc1,i,-9.9%,1.6
N#CC(C#N)=C1CCc2ccccc2N1,i,1.1%,x
O=S(=O)(c1ccc(N2CCOCC2)cc1)N1CCOCC1,i,-0.1%,-0.6
COc1cccc2cc(C(=O)N3CCN(C45CC6CC(CC(C6)C4)C5)CC3)c(=O)oc12,i,7.7%,0.42
COc1cc(C2Nc3ccc4ncccc4c3C3=C2C(=O)CCC3)ccc1O (stereo not given),i,6.4%,-1.5
CCCn1c(=O)c2ccccc2n2c(SCC(=O)c3ccccc3)nnc12,i,-6.2%,0.68
O=C(NCCNC(=O)c1cccs1)c1ccco1,i,-2.9%,0.48
O=C1CC(c2ccccc2)CC(O)=C1C=NCCCO (stereo not given),i,1.8%,-1.6

# In the list so far, 2 contain an NH in an aromatic ring.
SMILES,MT1-MMP reporter,Hsc70,WNV protease inh
O=C(NCCc1ccccc1)c1ccc(=O)[nH]c1,i,3.6%,x
COc1ccccc1NC(=O)CSc1nc2n[nH]c(C)c2c(=N)n1-c1ccccc1Cl,i,6.0%,x

# Continuation:
SMILES,MT1-MMP reporter,Hsc70,WNV protease inh
COCCn1c(SCC(=O)N2CCCC2)nnc1C(C)C,i,-5.0%,-0.24
Cc1c(NC(=O)CSc2nnc3sc4ccccc4n23)c(=O)n(-c2ccccc2)n1C,i,2.0%,0.33
Cc1nc(SCC(=O)Nc2c(C)n(C)n(-c3ccccc3)c2=O)[nH]c(=O)c1C,i,-0.6%,x
CCOc1ccccc1N1CCN(S(=O)(=O)CC)CC1,i,2.5%,-1.2
CC(=O)c1cc(F)c(N2CCCCCC2)cc1C,i,-0.2%,x
COCCCn1c2nc3ccccc3nc2c2c(=O)n(Cc3ccc(Cl)cc3)c(C)nc21,i,-8.6%,0.39
Cn1c(=O)n(C)c(=O)n(CC(=O)N2CCCCC2)c1=O,i,-3.0%,0.08
Cc1ccc2cc(C#N)c(N3CCCN(C(=O)C4CCCO4)CC3)nc2c1 (stereo not given),i,-7.7%,-0.73
COc1ccc(-n2cnc3cc(NCc4ccccn4)ccc32)cc1,i,5.3%,x
Cc1cc2c(s1)c1cnn(CC(=O)NCCc3ccccc3)c(=O)c1n2C,i,0.5%,0.21
COc1ccccc1-c1ccc(C(=O)O)o1,i,-5.0%,-1.6
CCOc1cc(NS(=O)(=O)c2ccc(Cl)cc2)c(OCC)cc1NC(=O)CC(C)C,i,1.6%,x
COC(=O)CSc1nnc(C)n1-c1cccc(OC)c1,i,4.1%,x
Cc1cc(C)cc(N2CC34C=CC(O3)C(C(=O)OCC(=O)NCc3ccco3)C4C2=O)c1 (stereo not given),i,-7.3%,-0.15
CCn1c(=S)ccc2ccc(OC)cc21,i,0.3%,-0.38
Cc1cc(C(=O)CSc2nnc(-c3cccs3)o2)c(C)n1-c1ccccc1,7.7µM*,-1.7%,0.63
O=C(Cn1cnc2c(cnn2-c2ccc(Cl)cc2)c1=O)NCCc1ccccc1,i,-2.0%,0.22
O=C(Nn1c(Cc2cccs2)nc2ccccc2c1=O)c1ccc(F)c(F)c1,i,-1.3%,x
O=C(Oc1ccccc1)c1cccc2cccnc12,i,0.7%,-0.43
O=C(Nc1nnc(CC(=O)N2CCOCC2)s1)C1COc2ccccc2O1 (stereo not given),i,5.9%,-0.64
O=C(O)CNC(=O)C1COc2ccccc2O1 (stereo not given),i,0.9%,-0.27
Cc1ccc(C(C(=O)NC2CCCCC2)N(CC2CCCO2)C(=O)CNC(=O)c2ccco2)cc1 (stereo not given),i,-6.5%,-0.84
CS(=O)(=O)N1CCN(c2ccccc2NC(=O)c2cccc3ccccc23)CC1,i,-0.6%,x
CC1CCCCC1NC(=O)COn1nnc2ccc(Cl)cc21 (stereo not given),i,-2.2%,x
c1ccc(-n2nnnc2NCCc2c[nH]c3ccccc23)cc1,i,2.5%,-0.39
COC(=O)Nc1sc2c(c1C(=O)NC1CC1)CCCCCC2,i,2.7%,x
CC(=O)N1CCc2cc(S(=O)(=O)NCCC(=O)Nc3ccc4c(c3)OCCO4)ccc21,i,3.9%,-0.06
Fc1ccccc1Cn1nnc(-c2ccc3c(c2)OCO3)n1,i,3.1%,x
Cc1cc(C)c(NC2=NCC(=O)N2C2CCCCC2)c(C)c1,i,3.7%,0.2
CC(C)(C)NS(=O)(=O)c1cccc2nsnc12,i,-8.0%,-0.57
O=C1NC(=O)C(Nc2cccc3ccccc23)S1 (stereo not given),i,5.2%,x
O=S(=O)(Nc1ncn[nH]1)c1ccc2ccccc2c1,i,3.6%,0.33
CN1CCc2c(c3c(n2C)CCN(C)C3c2ccc(F)cc2)C1c1ccc(F)cc1 (stereo not given),i,3.1%,x
CCc1ccccc1NC(=O)CSc1nnc(-c2ccco2)n1N,i,-4.5%,-0.41
CCc1ccc(N2CCN(C(=O)c3ccc(OC)c(OC)c3)CC2)cc1,i,-1.0%,0.97
CN(C(=O)c1ccncc1)c1nnc(-c2ccccn2)s1,i,8.0%,2
CC(C)C(=O)NC(c1ccco1)c1ccc2cccnc2c1O (stereo not given),28µM*,5.1%,0.96
O=C(CN1C(=O)c2ccccc2S1(=O)=O)Nc1ccc(S(=O)(=O)N2CCCC2)cc1,i,0.2%,0.38
COCCCn1c(C)nnc1SCC(=O)NCc1ccco1,i,-2.7%,x
CCn1c(-c2cc(Br)cc(OC)c2O)nc2cc(S(=O)(=O)N(C)C)ccc21,i,-3.1%,-0.01
CC(=O)c1cccc(NC(=O)NCc2ccco2)c1,i,3.8%,1.2
COc1ccccc1CNC(=O)CSc1nc(-c2ccccc2)cn1N,i,6.8%,-0.62
COc1ccccc1-c1noc(-c2cc(OC)c(OC)c(OC)c2)n1,i,-2.7%,-0.43
CCOC(=O)C1=C(C)Nc2nc3ccccc3n2C1c1ccccc1 (stereo not given),i,0.2%,x
CC(=O)N1CCc2cc(NC(=O)c3ccc(C)cc3)ccc21,i,1.0%,1.9
Cc1nc(CC(=O)O)c(-c2ccccc2)s1,i,-8.1%,0.42
Cc1ccc(C2CC(c3ccccc3OC(F)F)Nc3ncnn32)cc1 (stereo not given),i,2.6%,-1.2
Cc1n[nH]c(C)c1CCc1nc2c3ccccc3nc(SCC(N)=O)n2n1,i,-2.8%,-0.35

# 6 structures from above, sorted by formula weight, rising.
SMILES,MT1-MMP reporter,Hsc70,WNV protease inh
CC(=O)N1CCc2cc(NC(=O)c3ccc(C)cc3)ccc21,i,1.0%,1.9
CC(C)C(=O)NC(c1ccco1)c1ccc2cccnc2c1O (stereo not given),28µM*,5.1%,0.96
COCCCn1c(C)nnc1SCC(=O)NCc1ccco1,i,-2.7%,x
COc1ccccc1-c1noc(-c2cc(OC)c(OC)c(OC)c2)n1,i,-2.7%,-0.43
Cc1ccc(C2CC(c3ccccc3OC(F)F)Nc3ncnn32)cc1 (stereo not given),i,2.6%,-1.2
CCn1c(-c2cc(Br)cc(OC)c2O)nc2cc(S(=O)(=O)N(C)C)ccc21,i,-3.1%,-0.01

# (cont.)
SMILES,MT1-MMP reporter,Hsc70,WNV protease inh
Cn1c(=O)c2c(nc(N3CCN(c4ccccn4)CC3)n2Cc2ccc(Cl)cc2Cl)n(C)c1=O,i,5.5%,x
Cc1nc(SCC(=O)c2ccccc2)n[nH]1,i,2.1%,1.1
CC1CC(=O)C2=C(C1)Nc1ncnn1C2c1ccccc1 (stereo not given),i,6.5%,0.77
Cc1cc(C(=O)Nc2c(F)cc(F)cc2Br)c(C)o1,i,-12%,0.98
Cc1ccc(S(=O)(=O)N(C)CCCC(=O)Nc2ccncc2)cc1,i,-1.0%,0.44
COC(=O)C1=C(C)NC(=O)CC1c1ccc(C(=O)OC)cc1 (stereo not given),i,3.4%,-0.48
COCc1cc(=O)[nH]c(/N=C(\N)Nc2ccc(Oc3ccccc3)cc2)n1,i,-3.0%,0.92
O=C1C2C3c4ccccc4C(c4ccccc43)C2C(=O)N1Cc1ccco1 (stereo not given),i,-1.7%,-1.9
O=C1CNC(=O)/C1=C\N1CCCCC1,i,-2.3%,-0.79
O=C(CSc1nc2ccccc2o1)Nc1ccc(Cl)cc1,i,-1.1%,x
Nc1c(C(=O)NCC2CCCO2)sc(=S)n1-c1ccccc1 (stereo not given),i,7.0%,-2
COc1cccc(N2CCN(C(=O)c3ccc(=O)oc3)CC2C)c1 (stereo not given),i,-6.6%,0.71

# Screening results from PubChem BioAssay.

# Some of the compounds tested; rates above refer to the full screens.
